# Screens deposited in PubChem by National Center for Advancing Translational Sciences (NCATS).
# StopGo reporter – FMDV 2A StopGo reporter, luciferase signal; human cells with a luciferase reporter of 2A StopGo recoding; control for the full effect not named in the record; Potency, µM (top dose mostly 57.9 µM), without a hit: top-dose signal change, negative = less light; hit rate 1.2% among 410,000; AID 1159524; active = well fitted falling curve with a large enough effect; inconclusive = small, poorly fitted or top-dose-only effect; inactive = no such curve, though single readings can be large or run the other way; tested in HEK293T cells; further: on the % scale 0 is the no-effect control and ±100 the full control effect; nearly all actives have a fitted effect of over 45% in size; luciferase light after 4 h
# NS1 function inh – influenza NS1 inhibition. S. cerevisiae slowed by influenza A NS1, growth recovery by OD600. Potency, µM (highest dose often 46.1 µM), without a hit: top-dose activity, positive = more growth. hit rate 0.4% among 270,000. AID 2326; active means well fitted rising curve with a large enough effect; inconclusive means small, poorly fitted or top-dose-only effect; inactive means no such curve, though single readings can be large or run the other way; further: nearly all actives have a fitted effect of over 50% in size
#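 Recovery from NS1-induced slow growth read by OD600 in budding yeast switched to galactose assay medium (pH 6.0, -URA) at 1:100 dilution. Compound 23 nl per well; the matching strain lacking NS1 serves as control.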
# Cruzain noTriton – blocks cruzain activity in detergent-free assay; P25779; purified cruzain, Z-FR-AMC fluorescence, no detergent; Potency, µM, inactives show max response, negative = inhibition, actives largely listed as inhibitors; hit rate 2.3% among 200,000; AID 1476;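 further: plate controls were enzyme without inhibitor for no effect and buffer without enzyme for full effect; nearly all actives have a fitted effect of over 40% in size; top concentration of the series not given in the record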
# Target sequence (P25779 123-467 limits assumed): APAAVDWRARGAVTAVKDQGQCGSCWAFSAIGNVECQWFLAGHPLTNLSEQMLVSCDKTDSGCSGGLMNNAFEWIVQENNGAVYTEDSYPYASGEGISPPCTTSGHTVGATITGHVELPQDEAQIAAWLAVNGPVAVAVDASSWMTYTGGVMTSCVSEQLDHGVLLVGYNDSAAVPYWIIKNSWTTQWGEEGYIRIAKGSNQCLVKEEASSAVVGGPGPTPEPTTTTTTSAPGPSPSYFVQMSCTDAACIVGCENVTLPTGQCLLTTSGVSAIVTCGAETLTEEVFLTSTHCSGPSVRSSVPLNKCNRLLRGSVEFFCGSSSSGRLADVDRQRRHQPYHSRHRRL
#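 Purified cruzain at 1.5 nM, pre-incubated 15 min with compound at room temperature in 100 mM sodium acetate pH 5.5, 5 mM DTT, 0.00005% Triton X-100. Reaction started with 2 uM Z-FR-AMC; AMC fluorescence increase over 60 s gives rate.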
# RE007 growth inh – less growth of the S. pombe RE007 Vpr strain; S. pombe RE007 Vpr strain, BacTiter-Glo ATP luminescence, 24 h; control for the full effect not named in the record; Potency, µM (series often up to 92.2 µM), inactives show at the top dose activity change, negative = less growth; hit rate 0.21% among 360,000; AID 651644; active = well fitted falling curve with a large enough effect; inconclusive = small, poorly fitted or top-dose-only effect; inactive = no such curve, though single readings can be large or run the other way;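 further: on the % scale 0 is the no-effect control and ±100 the full control effect; nearly all actives have a fitted effect of over 50% in size; the assay follows cell death caused by Vpr and the record does not say whether a fall means rescue or toxicity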
#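 Fission yeast strain RE007, carrying one chromosomally integrated HIV-1 vpr copy, was seeded at OD 0.01 in PMG+AL medium with 23 nL pinned compound. After 24 h at 30 °C and 99% humidity, viability was read by BacTiter-Glo luminescence.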
# Lassa entry inh – Lassa virus entry inhibition | AID 540256 | hit rate 1.2% among 300,000 | Lassa virus pseudotype entry inhibition, cell reporter; control for the full effect not named in the record | Potency, µM (titrated, usually from 37.9 µM), for the others: at the highest dose activity change, negative = inhibition, hits mostly inhibitors; active means well fitted inhibition curve with a large enough effect; inconclusive means small, poorly fitted or top-dose-only effect, or effect the other way; inactive means flat fitted curve, though single readings scatter; tested in HEK293 cells; further: on the % scale 0 is the no-effect control and ±100 the full control effect; nearly all actives have a fitted effect of over 50% in size; luciferase read-out
# MARV entry inh – Marburg virus entry inhibition | Marburg virus pseudotyped entry inhibition, cell reporter; control for the full effect not named in the record; about a third of the inactives were read at about 46 µM | Potency, µM (top dose mostly 37.8 µM), inactives show at the highest dose activity change, negative = inhibition, actives largely listed as inhibitors | hit rate 1.8% among 300,000; active = well fitted inhibition curve with a large enough effect; inconclusive = small, poorly fitted or top-dose-only effect, or effect the other way; inactive = flat fitted curve, though single readings scatter; tested in HEK293 cells; about a fifth of its hits are not listed in these tables; further: on the % scale 0 is the no-effect control and ±100 the full control effect; luciferase read-out
# SARS PLP yeast – inhibitors of SARS-CoV papain-like protease in yeast | S. cerevisiae expressing SARS-CoV PLpro, growth rescue; control for the full effect not named in the record | hit rate 0.19% among 330,000 | Potency, µM (top dose mostly 32.9 µM), without a hit: at the top dose activity, positive = growth rescue | AID 485353; active means well fitted rising curve with a large enough effect; inconclusive means small, poorly fitted or top-dose-only effect; inactive means no such curve, though single readings can be large or run the other way; further: 0% is about no effect; nearly all actives have a fitted effect of over 55% in size; growth read by luminescence after 48 h
# Cruzain Triton – blocks cruzain activity in presence of Triton detergent; Potency, µM, for inactives: max response, negative = inhibition, actives largely listed as inhibitors; purified cruzain, Z-FR-AMC fluorescence, 0.01% Triton; P25779; hit rate 0.43% among 200,000;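 further: plate controls were neutral wells for no effect and buffer without enzyme for full effect; nearly all actives have a fitted effect of over 40% in size; top concentration of the series not given in the record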
#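 Cruzain (1.5 nM) preincubated 15 min at RT with compound in 100 mM sodium acetate pH 5.5, 5 mM DTT, 0.01% Triton X-100. Reaction started with 2 uM Z-FR-AMC; AMC fluorescence (ex 360/em 450 nm) change over 60 s gave rate.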
# Numbers without * were called inactive; ? = inconclusive; · = no result given; & = joins results of further samples; [ ] = another dose, or the depositor's remark. Unless noted, the call rests on the fitted dose curve; in most records, active means well fitted curve in the direction sought with a large enough effect; inconclusive means small, poorly fitted or top-dose-only effect, or another doubt; inactive means no such curve, though single readings can be large; an effect the other way counts as inactive or inconclusive. Potency means the concentration at half of the fitted maximal effect.
SMILES,StopGo reporter,NS1 function inh,Cruzain noTriton,RE007 growth inh,Lassa entry inh,MARV entry inh,SARS PLP yeast,Cruzain Triton
Cc1nc2ccccc2c(=O)n1NC(=O)c1c(O)c2ccccc2n(C)c1=O,·,-66%,-4%,·,·,2%,-2%,0.0%
CSc1ccccc1NC(=O)c1noc2c1CCC2,50%[activator],-56%,-1%,?,7%,0%,-16%,-6.6%
O=C(O)c1ccc(-c2ccccc2C(F)(F)F)o1,0%,-2%,-11%,14%,1%,25%,-1%,2.8%
O=C(NCCCc1ccncc1)C1CCC(=O)N(Cc2cccc(C(F)(F)F)c2)C1 (stereo not given),-3%,5%,·,-14%,2%,2%,14%,·
Cc1cccc(N2CCN(C(=O)c3ccc4c(Cl)c5c(nc4c3)CCCC5)CC2C)c1 (stereo not given),1%,·,4%,·,-3%[46.1 µM],-2%[46.1 µM],·,1.6%
c1ccc(-c2[nH]ncc2-c2nc3ccccc3[nH]2)cc1,·,-10%,4%,-1%,12%,-11%,9%,1.1%
COc1ccc(NC(=O)c2sc(NC(=O)C3CC3)nc2C)cc1,-9%,0%,·,-6%,·,·,10%,·
NC(=O)CSc1nc(-c2ccccc2Cl)ns1,62%[activator],-9%,-10%,5%,?,?,-1%,4.2%
NC(=O)CCS(=O)(=O)c1ccccc1,·,2%,11%,-13%,?,-2%,-3%,-0.5%
Cc1ccc2c(CC(=O)NNC(=O)c3ccccc3O)coc2c1,-3%,·,·,-3%,?,-1%[46.1 µM],-4%,·
Cc1ccc(C(=O)Nc2nc(=O)[nH]s2)cc1,9%&5%,2%,·,-7%&-26%,2%&13%[46.1 µM],-16%&-18%,-2%&0%,·
COc1cccc(CNC(=O)c2ccc(N3CCOCC3)c([N+](=O)[O-])c2)c1,4%,6%,·,1%,-20%[46.1 µM],18%[46.1 µM],-3%,·
O=C(NCc1ccccc1Cl)c1ccc2c(c1)NC(=O)C(CS(=O)(=O)Cc1ccc(Cl)cc1)N2 (stereo not given),-9%,·,?,·,4%[46.1 µM],·,·,2.2%
CCOC(=O)C1CCN(Cc2cnc(Oc3ccc(C(C)(C)C)cc3)s2)CC1,-28%,0%,-15%,-9%,9.2µM*,3%,-8%,-0.8%
O=C(Cn1cc([N+](=O)[O-])cn1)NCCc1nc2ccccc2[nH]1,-2%,·,·,7%,8%[46.1 µM],12%[46.1 µM],0%,·
CC(=O)C1=C(O)C(=O)N(Cc2ccco2)C1c1ccc2c(c1)OCO2 (stereo not given),10%,-38%,-13%,10%,-3%,14%,1%,-0.4%
O=C(CN1C(=O)CC(c2ccccc2)S(=O)(=O)c2ccccc21)NC1CCCC1 (stereo not given),-14%,·,·,-6%,5%,7%[46.1 µM],-3%,·
O=C(CCCCCn1c(=O)[nH]c2ccccc2c1=O)NCCc1ccccc1,23%,·,-8%,·,?,·,·,2.1%
O=C1c2ccccc2C(=O)N1CCCn1ccnc1,8%,29%,·,-10%,9%[46.1 µM],8%[46.1 µM],-3%,·
FC(F)Oc1ccc(NC(=S)Nc2ccc3cn[nH]c3c2)cc1,14%,-2%,·,2%,-29%,-14%[46.1 µM],-2%,·
Cc1onc(-c2c(Cl)cccc2Cl)c1C(=O)N(C)Cc1ccccc1,-1%,1%,·,-22%,-25%[46.1 µM],?,3%,·
Cc1ccc(-n2ncc3c(N4CCN(Cc5ccccc5)CC4)ncnc32)cc1,?,·,4%,·,14%[46.1 µM],·,·,0.0%
CC(=O)Nc1ccc(S(=O)(=O)Oc2cccc(N3C(=O)C4CCCCC4C3=O)c2)cc1 (stereo not given),18µM*,-5%,10%,-1%,4%,?,4%,4.7%
CC(C)COc1cccc(-c2cc(C(=O)N/N=C/c3ccncc3)c3ccccc3n2)c1,12%,10%,·,7%,?,2.8µM*,-1%,·
O=C(O)c1ccccc1C(=O)OCc1ccccc1,33%[activator],-5%,-10%,14%,9%,19%[46.1 µM],·,4.1%
Cc1cccc(NC(=O)c2ccc(S(=O)(=O)N3CCCCCC3)cc2)n1,-30%,·,·,-3%,8%,15%[46.1 µM],0%,·
Cc1ccc(-c2cc(Cc3cccs3)c(=O)[nH]n2)cc1,2%,-1%,·,1%,?,12%[46.1 µM],-4%,·
COc1ccc(N2C(=O)CC(Cc3ccccc3)C2=O)cc1 (stereo not given),28%,-4%,8%,2%,4%,9%,1%,3.6%
COc1ccc(N2CCN(C(=O)Cn3cnc4c(cnn4-c4ccccc4)c3=O)CC2)cc1,-9%,·,·,7%,4%[46.1 µM],-23%[46.1 µM],5%,·
CC1OC23CCCCC2C(C#N)(C(=N)O3)C1(C#N)C#N (stereo not given),10%,0%,4%,12%,3%,1%,-1%,1.7%
O=S(=O)(c1ccccc1)N(Cc1ccccn1)Cc1ccccn1,-3%,4%,·,-6%,·,·,0%,·
CCOC(=O)CSc1nc2c(sc3ccccc32)c(=O)n1CCc1ccccc1,0%,·,6%,·,?,·,·,3.5%
COc1cc(/C=N/NC(=O)c2nonc2C)ccc1O,35%[activator],6%,·,0%,14%[46.1 µM],3%[46.1 µM],-1%,·
Cc1cc(C)cc(-c2nnc(SCC(=O)NCc3cccs3)o2)c1,15%,-8%,-10%,0%,?,4%,-5%,0.8%
Cn1c(CCNC(=O)c2cc(COc3ccc(F)c(F)c3)on2)nc2ccccc21,8%,-14%,·,-9%,0%,11%[46.1 µM],-1%,·
CCCCCCCNC1=CC(=O)CC(c2ccccc2)C1 (stereo not given),-20%,-12%,-1%,-1%,?,?,14%,-8.5%
CCn1nc(C)cc1C(=O)Sc1ccc(C)cc1,-1%,3%,·,-10%,19%[46.1 µM],2%[46.1 µM],-6%,·
CCCCOc1ccc(NC(=O)CN2CCN(C(=O)OCC)CC2)cc1,-27%,-16%,26%,-9%,3.5µM*,0%,-14%,-1.2%
COc1cccc(NC(=O)COC(=O)/C=C/c2ccc(Cl)cc2Cl)c1,2%,1%,-9%,-25%,1%,?,-5%,-4.5%
O=C(NCc1ccccn1)c1ccc(Cl)cc1Cl,63%[activator],3%,6%,-7%,-15%[14.3 µM],13%,-5%,0.3%
Cc1cccc(C)c1NC(=O)C(=O)NCCCN1CCOCC1,?,4%,4%,-4%,22%,22%,6%,-4.7%
CN(C)S(=O)(=O)c1cc(NC(=O)CN2CCc3ccccc32)ccc1Cl,0%,·,·,3%,5%[46.1 µM],12%[46.1 µM],-1%,·
NC(N)=Nc1nc2cc([N+](=O)[O-])ccc2o1,28%,3%,·,-3%,·,·,-2%,·
CCN1/C(=C/C(=S)Nc2ccccc2)Sc2ccccc21,-2%,?,·,4%,?,?,-2%,·
Cc1cc(Br)ccc1NC(=S)N1CCOCC1,20%,8%,·,-20%,?,2%[46.1 µM],2%,·
COc1ccc(/C=N/n2c(-c3n[nH]c4c3CCC4)n[nH]c2=S)c(OC)c1OC,-10%,2%,·,43%,·,·,1%,·
CSc1ccc(C2N=C(c3ccccc3)NO2)cc1 (stereo not given),22%,0%,·,9%,6%[46.1 µM],?,6%,·
CN1C(=O)c2c(sc3c2CCCC3)NC1c1ccccc1O (stereo not given),·,20%,-27%,·,·,1%,-6%,-2.5%
Cc1cc(NC(=O)c2cnn3cccnc23)n(-c2ccccc2)n1,-26%,7%,2%,-7%,0%,?,1%,0.1%
O=C1N=C(N2CCN(c3ccccc3)CC2)S/C1=C/c1ccco1,11%,-11%,·,4%,·,·,-3%,·
COc1cc(OC)cc(C(=O)Nc2cc(-c3nc4cccnc4s3)ccc2C)c1,-8%,·,-19%,·,3%[46.1 µM],·,·,-8.3%
Cn1c(SCC(=O)OCc2ccccc2)nnc1-c1ccco1,-9%,-14%,-9%,1%,5%,16%,0%,-2.9%
COC(=O)c1ccc(C2/C(=C(/O)c3ccc4c(c3)CC(C)O4)C(=O)C(=O)N2Cc2ccncc2)cc1 (stereo not given),-11%,2%,·,11%,6%[46.1 µM],-5%[46.1 µM],-4%,·
O=C(Nc1ccccc1Br)c1cc[n+]([O-])cc1,1%,2%,·,-5%,3%,-1%[46.1 µM],-12%,·
O=C(O)C(=O)Nc1ccc(NC(=O)C(c2ccccc2)c2ccccc2)cc1,-7%,1%,·,1%,26%[46.1 µM],-3%[46.1 µM],1%,·
O=C1C2CCCN2C(=S)N1Cc1ccccc1 (stereo not given),-2%,·,·,0%,11%,-9%,8%,·
CC(C)(C)OC(=O)N1CCOCCOCCN(C(=O)OC(C)(C)C)CCOCC1,-29%,-6%,?,17%,-5%,-1%,1%,3.2%
CC(=O)N1CCN(C(=O)CCc2c[nH]c3ccccc23)CC1,3%,-2%,-2%,0%,14%,-5%,-2%,3.5%
CCn1c(COc2ccccc2)nnc1SCC(=O)Nc1cc(OC)ccc1OC,-6%,-16%,?,28%,-2%,9%,0%,2.3%
CCn1c(O)c(/C=C/C=C/C=Nc2ccccc2)sc1=S,-15%,7%,·,-12%,9%[46.1 µM],11%[46.1 µM],0%,·

# Continuation.
SMILES,StopGo reporter,NS1 function inh,Cruzain noTriton,RE007 growth inh,Lassa entry inh,MARV entry inh,SARS PLP yeast,Cruzain Triton
O=C(CSc1ccnc(=O)[nH]1)NCc1ccc(F)cc1,9%,·,-2%,·,17%[46.1 µM],·,·,-1.4%
CCOC(=O)c1c(C)[nH]c(C(=O)COC(=O)/C=C/c2cccc(OC)c2OC)c1C,-6%,-9%,4%,4%,0%,?,3%,0.7%
CCOC(=O)c1[nH]c(=O)[nH]c1COC(=O)c1cc2ccccc2o1,-5%,5%,-4%,21%,16%,9%,8%,-0.9%
CCN(CC)C(NC(=O)Cc1ccccc1)C(Cl)(Cl)Cl (stereo not given),8%,-4%,-2%,-3%,4%,?,-18%,3.3%
O=C(COC(=O)CNC(=O)c1ccccc1)Nc1ccc(F)c([N+](=O)[O-])c1,22%,·,·,1%,-2%[46.1 µM],?,0%,·
O=C(CS)Nc1ccc2ccccc2c1,14%,1%,·,-1%&27%,2%,20%[46.1 µM],2%,·
COc1ccc(OCc2nc(N)nc(Nc3ccc(C)cc3)n2)cc1,30%[activator],3%,3%,-6%,10%,?,-1%,-13%
